Sa RN4220 lethal = growth inhibition of S. aureus RN4220, primary screen, OD600. 330,000 tested, 0.33% active. inhibition, % (no concentration beside the values). 16 h. AID 1259311, 2017;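 active = z-score of -3 or lower and OD600 up to 0.18 on both plates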;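 also: plate controls were untreated cells for no effect and reference antibiotic for full effect; stock transfer was 100 nL into about 80 µL; one replicate is shown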
Mtb hypoxia rep = PubChem AID 1159583; M. tuberculosis hypoxia-regulated fluorescent reporter, fluorescence; fluorescence inhibition, % (test concentration not listed); 300,000 tested, 0.1% active;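 active = 35 to 45% if threefold the growth effect, above 45% if 1.5-fold the growth effect; inactive = the rest, general growth blockers included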;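 also: wells of about 50 µL received 100 nL stock; 0% = vehicle wells and 100% = reference inhibitor wells; whole bacteria with a GFP reporter of the hypoxia response; strong numbers were not always called active; many hits fall short of the cut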
BJeLR lethal = MLPCN primary cell-based screen for lethality selective to Ras in HRASV12 cells | BJeLR (HRASV12) viability, CellTiter-Glo ATP luminescence, 48 h; reference of the scale not given here | inhibition, % (no concentration beside the values) | 300,000 tested, 0.17% active | AID 1554, 2009;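 active = replicate mean above 50%; inconclusive = above 50% but judged a plate artefact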;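 also: 50 nL library stock added to about 25 µL; numbers are from one replicate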
ugtP null kill = growth inhibition of ugtP-null S. aureus, primary screen, RN4220 ugtP deletion, OD600. 16 h; some inactives read as strong as hits. growth inhibition, % (concentration not given with the values). 330,000 tested, 0.54% active;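 active = z-score under -3 and OD600 up to 0.15 on both plates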;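 also: plate controls were untreated wells for no effect and antibiotic for full effect; wells of about 80 µL received 100 nL stock; the first replicate is given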
PrP 5UTR inh = inhibition of PrP 5' UTR reporter expression; inhibition, % (test concentration not listed); cell-based PrP 5' UTR mRNA reporter, plate reader; 340,000 tested, 0.35% active;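 active = every replicate at 50% or more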;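 also: 0 = median of the neutral control wells; tested in H4 reporter cells; numbers are from one replicate; inactives centre near -14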
Autofluor counter = compound fluorescence in toxin protease inhibitor counterscreen | 360,000 tested, 3.1% active | fluorescence intensity (concentration not given with the values) | compound autofluorescence counterscreen, microsphere flow cytometry; active compounds read high;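 active = at least 3 SD above the mean of all compounds, about 16000 in these data; inconclusive = too few beads counted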;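 also: 100 nL of 1 mM stock went into each well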
Mtb hypoxia rep growth = second read-out of Mtb hypoxia rep, no call of its own (marks repeat the call); growth inhibition, %; measured here: M. tuberculosis growth (absorbance);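 0% = vehicle and 100% = reference antibiotic; read after six days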
Numbers without * were called inactive; ? = inconclusive; . = not tested or not shown. Rows were taken by chance. Share with any hit: about 3.9%.

smiles,Sa RN4220 lethal,Mtb hypoxia rep,Mtb hypoxia rep growth,BJeLR lethal,ugtP null kill,PrP 5UTR inh,Autofluor counter
Cc1ccsc1/C=C(\C#N)C(=O)NCCCN1CCOCC1,4.3,9,11,-3,12,-31,3965
O=C1[C@@H]2Cc3c([nH]c4ccccc34)CN2C(=O)CN1CCCO,2.2,1,6,2,-2,-13,3537
Cc1nn(-c2ccccc2)c(N2CCCC2)c1C=O,3.4,0,5,7,2,-5,5081
CCOC(=O)c1sc(NC(=O)c2cc(-c3ccc(C)cc3)nc3ccccc23)c(C#N)c1C,10,-5,5,11,-9,-14,6103
CCCCCCc1cc2cc(C(=O)Nc3cccc(OC)c3)c(=O)oc2cc1O,43,1,-2,26,25,-9,7591
C/C(=N\NC(=S)Nc1ccccc1C)C1Cc2ccccc2C(=O)O1 (centres undefined),.,.,.,-12,.,-7,10168
CCn1c(SCC(=O)c2ccc(NS(=O)(=O)c3ccccc3)cc2)nnc1-c1cccs1,0.1,1,3,-6,-13,0,?
Cn1cc(SCC(=O)Nc2nccs2)c2ccccc21,18,-5,4,-10,2,-39,7067
Cc1ccnc(SCC(=O)c2ccc(Br)s2)n1,16,-3,-2,5,14,-40,2239
Cc1c(C)c(C)c(S(=O)(=O)N2CCC3(CC2)OCCO3)c(C)c1C,1.0,6,1,-6,0,2,6088
CC(C)n1nnc2c(=O)oc3ccccc3c21,1.2,9,4,-4,1,-14,2065
O=C(C1=C(O)C(=O)N(CCc2ccccc2)C1c1cccs1)c1ccco1 (centres undefined),27,2,5,-21,19,-11,3087
CCCn1cc(CN2CCC(n3nccc3NC(=O)c3ccc4c(c3)OCO4)CC2)c(C)n1,0.8,18,6,9,2,-7,6950
O=C(O)c1ccc(NC2OC[C@@H](O)[C@H](O)[C@H]2O)cc1 (some centres undefined),.,.,.,-4,.,-10,5199
CCOC(=O)c1ccc(NC(=S)NCc2ccc(S(N)(=O)=O)cc2)cc1,1.9,-2,4,-10,2,-62,3526
Cc1ccc(C23CC4CC(CC(C(=O)OCC(=O)NC5CCS(=O)(=O)C5)(C4)C2)C3)cc1 (centres undefined),7.2,2,1,2,1,-17,2553

Overlap with the part before: 2 compounds; new compounds follow.
smiles,Sa RN4220 lethal,Mtb hypoxia rep,Mtb hypoxia rep growth,BJeLR lethal,ugtP null kill,PrP 5UTR inh,Autofluor counter
CCOC(=O)c1ccc(NC(=S)NCc2ccc(S(N)(=O)=O)cc2)cc1,1.9,-2,4,-10,2,-62,3526
Cc1ccc(C23CC4CC(CC(C(=O)OCC(=O)NC5CCS(=O)(=O)C5)(C4)C2)C3)cc1 (centres undefined),7.2,2,1,2,1,-17,2553
CC(=O)c1ccc(NC(=O)CSc2nnc(-c3ccco3)o2)cc1,4.3,9,-1,-1,1,-19,5528
O=C(CSc1nnc(SCc2ccc(Cl)cc2)s1)N/N=C/c1ccc(Cl)cc1Cl,.,.,.,5,.,-35,4385
CCC(=O)Nc1cc(C)c(NC(=O)C23CC4CC(CC(C4)C2)C3)cn1,2.9,.,.,-6,6,-20,3691
CCC(C)[C@H](NC(=O)N1CCC(C)CC1)C(=O)O (some centres undefined),4.4,8,1,3,1,8,5059
COC(=O)/C=C1/SC(=Nc2ccc(C)cc2C)NC1=O,0.7,.,.,2,6,-13,4743
C=CCc1c(C)nc(N2CCSCC2)[nH]c1=O,3.6,-2,0,-2,7,4,4253
O=C(NC1CCN(c2ncccn2)CC1)c1cccc(F)c1,2.1,18,11,-8,4,-21,4256
CCNc1nc(NCC)n2c(SCc3ccc(F)cc3)nnc2n1,-5.7,.,.,0,-2,5,4699
CCOC(=O)C(=O)/C(=C\N(C)C)c1onc(-c2c(Cl)cccc2Cl)c1C(=O)OC,1.9,.,.,-5,1,-32,2604
O=C(NC1CCCC1)C(c1ccncc1)N(CC1CCCO1)C(=O)Cn1nnc(-c2cccs2)n1 (centres undefined),8.3,11,6,-3,12,-13,3976
C/C(C=NNc1nnc(C)c(=O)[nH]1)=C\c1ccccc1,-0.6,10,5,.,3,.,.
COc1ccc(CN2CCN(C(=O)COc3ccc4ccccc4c3)CC2)c(OC)c1,1.2,-2,-5,-9,1,-7,4308
COc1ccccc1CN(C)c1nnnn1-c1ccccc1,2.8,8,23,-19,1,-1,4974
O=C(Nc1cccnc1)c1ccc(COc2ccccc2Cl)o1,8.5,11,7,-17,6,-12,5986
CCC(Sc1nccn1C)C(=O)Nc1ccc(Cl)cn1 (centres undefined),6.5,-3,3,.,14,-7,2917
Nc1cccc2c1C(=O)N(C(=O)c1ccco1)C2=O,0.7,12,0,5,5,-16,5145
Cc1ccc(S(=O)(=O)Oc2ccc(/C=C(/NC(=O)c3ccccc3)C(=O)O)cc2)cc1,6.7,2,-4,4,2,-7,3658
CCOC(=O)CNC(c1ccccc1)c1cc(Br)ccc1NC(=O)CCN1CCOCC1 (centres undefined),0.3,6,11,-3,-2,-21,2623
O=C(c1cccc(S(=O)(=O)N2CCc3ccccc32)c1)N1CCCC(C(F)(F)F)C1 (centres undefined),4.9,-2,-1,-5,7,-33,6487
COc1cccc(-c2cc(C(=O)Nc3cnn(Cc4ccc(F)cc4)c3)no2)c1,2.2,-5,-5,4,-2,-18,8280
COc1ccc(C(=O)CNc2ccc(C)cc2C)cc1,-0.4,15,7,-7,5,-37,3417
CC(C)(CO)CNC1CCCN(C2Cc3ccccc3C2)C1 (centres undefined),4.0,9,11,0,4,-20,3658
CCC1CCCCN1Cc1nc2c(c(=O)n(C)c(=O)n2C)n1Cc1ccccc1 (centres undefined),-11,0,1,-10,-3,2,6731
Nc1nnc(SCc2ccc(Cl)cc2)s1,-10,5,-1,7,20,-25,3251
CC(=O)c1c(C)oc2ccc(NS(=O)(=O)c3ccccc3)cc12,2.9,9,-2,-11,15,4,5194
CC(C)Oc1ccc(S(=O)(=O)N2CCCCC2)cc1NC(=O)C1CSC2(C)CCC(=O)N12 (centres undefined),1.9,6,3,-4,1,-10,7017
CC(NC(=O)COC(=O)c1ccc(S(=O)(=O)N2CCOCC2)cc1)c1ccccc1 (centres undefined),5.2,2,11,.,3,-6,3836
CC(C)(C)S(=O)(=O)/C(C#N)=C/c1sccc1C1OCCO1,4.9,-4,-4,2,4,-15,6260
Cn1cccc1CC(=O)NN=C/C(Cl)=C/c1ccccc1,4.2,3,2,.,-9,.,.
FCCCOc1ccc(-c2nccc(-c3ccccn3)n2)cc1,6.4,7,2,0,2,-34,3913
O=C(Oc1cccc(-n2cnnn2)c1)c1sc2ccccc2c1Cl,9.0,13,5,0,-1,-13,6801
CCOC(=O)c1c(C)c(C(=O)NCCCN2CCCC2=O)c(C)n1CC,3.0,-1,1,-1,5,-6,22714*

A draw from above in order of molar mass, descending.
smiles,Sa RN4220 lethal,Mtb hypoxia rep,Mtb hypoxia rep growth,BJeLR lethal,ugtP null kill,PrP 5UTR inh,Autofluor counter
CCOC(=O)CNC(c1ccccc1)c1cc(Br)ccc1NC(=O)CCN1CCOCC1 (centres undefined),0.3,6,11,-3,-2,-21,2623
CC(C)Oc1ccc(S(=O)(=O)N2CCCCC2)cc1NC(=O)C1CSC2(C)CCC(=O)N12 (centres undefined),1.9,6,3,-4,1,-10,7017
Cc1ccc(S(=O)(=O)Oc2ccc(/C=C(/NC(=O)c3ccccc3)C(=O)O)cc2)cc1,6.7,2,-4,4,2,-7,3658
CC(NC(=O)COC(=O)c1ccc(S(=O)(=O)N2CCOCC2)cc1)c1ccccc1 (centres undefined),5.2,2,11,.,3,-6,3836
COc1cccc(-c2cc(C(=O)Nc3cnn(Cc4ccc(F)cc4)c3)no2)c1,2.2,-5,-5,4,-2,-18,8280
CCOC(=O)c1c(C)c(C(=O)NCCCN2CCCC2=O)c(C)n1CC,3.0,-1,1,-1,5,-6,22714*
O=C(Oc1cccc(-n2cnnn2)c1)c1sc2ccccc2c1Cl,9.0,13,5,0,-1,-13,6801
CC(=O)c1c(C)oc2ccc(NS(=O)(=O)c3ccccc3)cc12,2.9,9,-2,-11,15,4,5194
CC(C)(C)S(=O)(=O)/C(C#N)=C/c1sccc1C1OCCO1,4.9,-4,-4,2,4,-15,6260
CCC(Sc1nccn1C)C(=O)Nc1ccc(Cl)cn1 (centres undefined),6.5,-3,3,.,14,-7,2917
FCCCOc1ccc(-c2nccc(-c3ccccn3)n2)cc1,6.4,7,2,0,2,-34,3913
Cn1cccc1CC(=O)NN=C/C(Cl)=C/c1ccccc1,4.2,3,2,.,-9,.,.
COc1ccc(C(=O)CNc2ccc(C)cc2C)cc1,-0.4,15,7,-7,5,-37,3417
Nc1nnc(SCc2ccc(Cl)cc2)s1,-10,5,-1,7,20,-25,3251
Nc1cccc2c1C(=O)N(C(=O)c1ccco1)C2=O,0.7,12,0,5,5,-16,5145

The results go on.
smiles,Sa RN4220 lethal,Mtb hypoxia rep,Mtb hypoxia rep growth,BJeLR lethal,ugtP null kill,PrP 5UTR inh,Autofluor counter
CCOc1ccc(NC(=O)c2sc3nc4n(c(=O)c3c2C)CCC4)cc1,-1.9,10,12,3,0,-24,5786
COc1ccc(-c2cc(CNC(C)=O)on2)cc1,3.3,.,.,-5,-5,-22,2983
O=C(Cn1cnc2sc3c(c2c1=O)CCCC3)NCC(=O)Nc1ccc(F)cc1F,0.8,10,25,6,2,-15,5476
CCS(=O)(=O)c1nc(S(=O)(=O)c2ccc(C)cc2)c(NCCCN2CCCC2=O)s1,5.7,10,1,-15,12,-4,4636
COCCCNC(=O)CN(CCc1ccccc1)S(=O)(=O)c1ccc(C)cc1,1.8,10,8,-10,8,-6,2522
CCn1ncc(CN2CCN(Cc3cccc(OC)c3)C(CCO)C2)c1C (centres undefined),3.4,9,1,-9,-1,-7,2623
CSCC[C@@H](C(=O)Nc1ccc2c(c1)OCCO2)N1Cc2ccccc2C1=O,-2.7,-7,7,-5,-1,-17,4394
CCCCCn1c(=O)c(C(=O)Nc2ccccc2Cl)c(O)c2ccccc21,5.4,9,2,5,23,-31,3765
Cc1[nH]c2ccccc2c1NC(=O)CN1CCN(C(=O)c2ccco2)CC1,4.7,9,5,2,4,.,5268
Cc1ccc(C)c(C(=O)CCC(=O)Nc2ccc(N3CCN(C)CC3)cc2C)c1,0.2,-7,7,.,-2,9,3997
COc1cc(C2N=C(c3ccccc3)NO2)cc(Br)c1O (centres undefined),-13,4,10,-14,0,-12,2939
NC(=O)CSc1c[nH]c2ccccc12,0.8,0,2,.,-6,-16,20265*
CCCn1c(C(O)c2cc(OC)c(OC)c(OC)c2)nc2ccccc21 (centres undefined),5.1,3,1,-1,7,-12,3915
Cc1ccc(CSc2nnc(-c3cccc(S(=O)(=O)N4CCOCC4)c3)n2CC(C)C)cc1,2.9,-4,10,-11,-9,-12,1965
CCOc1ccc(NC(=O)CCC(=O)Nc2nnc(CC)s2)cc1,2.9,0,-2,-2,-1,2,6056
Cc1ccc(SCC(=O)c2c(C)nc3cc(C)ccn23)cc1,3.3,13,10,-2,-10,-26,3193
Cc1cc(C)cc(N2C(=O)NC(=O)/C(=C/c3cccn3-c3ccc(Cl)cc3)C2=O)c1,-3.2,3,-2,-5,-3,-18,2166
O=C1C=C(c2ccc(F)nc2)CCC1,-1.4,-6,4,-7,-4,-7,4374
O=C(O)c1cc(N2C(=O)C3CC=CCC3C2=O)ccc1NCc1cccnc1 (centres undefined),5.9,7,10,2,9,-21,3240
COC(=O)/C(=C/c1c[nH]c2ccccc12)[N+](=O)[O-],21,16,7,-7,1,-7,10978
